PKD1 inh – inhibitors of human PKD1 kinase, biochemical, fluorescence polarization. 0.056% of 200,000 active. inhibition, %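 (about 10 µM by stock and volumes)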. PKD1 kinase fluorescence polarization assay. AID 797, 2007;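 active = inhibition of 50% or more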;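 also: controls were vehicle for no effect and a reference inhibitor for full effect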
Target sequence (Q15139 whole entry, looked up): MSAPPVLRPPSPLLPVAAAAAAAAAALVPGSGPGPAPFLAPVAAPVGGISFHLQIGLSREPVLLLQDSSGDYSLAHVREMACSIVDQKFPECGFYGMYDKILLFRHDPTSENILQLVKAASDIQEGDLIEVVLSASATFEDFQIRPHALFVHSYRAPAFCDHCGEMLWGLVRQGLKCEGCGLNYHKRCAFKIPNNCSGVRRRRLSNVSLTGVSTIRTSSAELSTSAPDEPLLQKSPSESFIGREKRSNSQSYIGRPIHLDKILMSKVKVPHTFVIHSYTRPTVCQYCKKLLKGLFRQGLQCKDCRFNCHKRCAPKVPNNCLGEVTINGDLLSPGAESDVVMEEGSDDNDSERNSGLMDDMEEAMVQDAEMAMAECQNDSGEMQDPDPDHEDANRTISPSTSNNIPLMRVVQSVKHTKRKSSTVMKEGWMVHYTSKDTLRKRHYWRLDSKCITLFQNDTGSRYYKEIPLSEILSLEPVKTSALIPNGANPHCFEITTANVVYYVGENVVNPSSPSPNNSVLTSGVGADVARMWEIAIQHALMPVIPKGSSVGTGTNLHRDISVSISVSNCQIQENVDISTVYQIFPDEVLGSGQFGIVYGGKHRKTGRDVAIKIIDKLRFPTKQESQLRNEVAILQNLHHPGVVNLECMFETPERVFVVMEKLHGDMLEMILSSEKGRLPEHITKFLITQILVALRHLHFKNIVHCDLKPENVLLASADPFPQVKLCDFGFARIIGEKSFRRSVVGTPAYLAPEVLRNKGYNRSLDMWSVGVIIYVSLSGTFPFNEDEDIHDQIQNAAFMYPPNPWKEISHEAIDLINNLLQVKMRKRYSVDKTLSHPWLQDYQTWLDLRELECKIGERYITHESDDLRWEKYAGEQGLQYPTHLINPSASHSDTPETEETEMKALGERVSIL
RGS16-Gao HTS – modulators of RGS16 binding to Galphao, primary screen, biochemical, human proteins, multiplexed bead flow cytometry; 0.38% of 220,000 active; binding response (% of control), % at 10 µM; Regulator of G-protein signaling 16 (Homo sapiens) + Guanine nucleotide-binding protein …; bead-based flow cytometry RGS16-Galphao binding, fluorescence; actives lie on both sides;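 active = below 25% or above 175%, edge rows of some plates excepted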;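 also: Galphao activated by GDP with aluminum fluoride before binding; 100% = wells without compound and 0% = beads without RGS; some results beyond the cut were filed as inactive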
Insulin prom inh – inhibitors of insulin promoter-driven GFP, primary screen, imaging, TRM-6 cells (human fetal islet line), eGFP reporter, cell count; reporter expression induced with tamoxifen; inhibition, % at 2 µM; 0.9% of 130,000 active;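 active = inhibition above the mean plus 3 SD, with well images judged a real hit on visual review, cut at about 60% in these data, passing the limit was not always enough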
GALR2 ag – GALR2 receptor agonists, primary screen, cell-based | Galanin receptor type 2 (Homo sapiens), O43603 | GALR2-expressing cells, agonist activation read-out | activation, %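 (tested at 5 µM)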 | 0.48% of 140,000 active | AID 803, 2007;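 active = above mean plus 3 SD of all compounds, about 5% in these data, not always enough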;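 also: 0% = vehicle buffer wells and 100% = reference agonist at full effect; tested in CHO reporter cells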
HSV replic up – enhancers of HSV replication in host cells, fold increase, host cell viability | HSV replication augmentation in cells | maximum fold increase | 0.005% of 220,000 active;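 active = peak rise of 1.5-fold or more in the series; tested in PC3 cells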;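 also: first round at 10 µM; read as green reporter fluorescence; hits show the peak of a series up to 25 µM; 1 = signal of infected wells without compound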
Insulin prom inh cell count – also measured in Insulin prom inh; calls as there; normalized cell count, %; measured here: cell count, toxicity; reference of the scale not given here;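 cells exposed to compound for 48 h; stained nuclei by imaging scaled within each plate; lower means fewer cells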
HSV replic up primary fold – recorded beside HSV replic up, whose call it bears; fold increase; compound at 10 µM; measured here: primary screen fold increase 10 uM; tested in PC3 cells;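 GFP signal in the first replicate; 1 = infected wells without compound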
Active calls of the source: *; i = inactive; · = not tested or not shown; & = joins results of further samples.

Every second line gives: PKD1 inh, RGS16-Gao HTS, Insulin prom inh, Insulin prom inh cell count, GALR2 ag, HSV replic up, HSV replic up primary fold
> Cc1ccc(-n2c(C)nnc2SCC(=O)Nc2ccccc2)cc1
 : -3, 99, -17, 115, -0.5, ·, ·
> Cc1ccc(Cl)cc1NC(=O)CC1NCCNC1=O (stereo unspecified)
 : -4, 107, 56, 153, -2.0, i, 0.82
> Cc1ccc(-c2[nH]nc3c2C(c2ccsc2)C(C#N)=C(N)O3)cc1 (stereo unspecified)
 : 0, 106, -31, 91, -2.4, i, 0.78
> CN1c2cccc3cccc(c23)N(C)C1(C)C
 : 1, 71, -6, 108, -1.7, ·, ·
> CCO[C@@H]1OC(C(N)=O)=C[C@H](c2cn(C(C)=O)c3ccccc23)[C@H]1CCCO
 : -1, 104, ·, ·, ·, i, 1
> COC1(NS(=O)(=O)c2ccc(Br)cc2)C(C)=CC(=O)C=C1C
 : -7, 101, ·, ·, ·, i, 0.93
> Cc1cc(=O)[nH]c(N=N/C(=N/Nc2ccc(O)cc2)c2ccccc2)n1
 : 3, 99, 25, 141, -1.3, i, 1
> COc1ccccc1N1CCN(Cc2nnnn2CCc2ccccc2)CC1
 : 1, 104, -65, 175, 0.5, i, 0.98
> O=c1c2ccccc2nc(N/N=C/c2ccccc2)n1O
 : -3, 103, 35, 136, -2.5, i, 1
> Cc1ccc(N2C(=O)NC3(CCCCC3)C2=O)cc1
 : -9, 113, ·, ·, -0.9, ·, ·
> OCCN1CCN(Cc2cccc(Oc3ccc(Cl)cc3)c2)CC1
 : 0, 100, -25, 103, -1.2, i, 1.1
> Cc1oc2c(CN(C)C)c(O)ccc2c(=O)c1-c1ccc2ccccc2n1
 : 0, 99, ·, ·, -3.9, i, 1.1
> O=C(c1ccccc1)c1cc(F)c(N2CCOCC2)cc1Cl
 : -11, 97, 61, 126, -2.0, i, 0.96
> CCN(CC(=O)NCCc1ccc(S(N)(=O)=O)cc1)Cc1nc2ccccc2c(=O)[nH]1
 : 6, 99, -77, 94, -1.8, i, 0.98
> CCOC(=O)c1cc(NC(=O)Nc2cc(C)ccn2)c(C)nc1C
 : -1, 65, 9, 43, ·, i, 0.96
> CCC(C)NS(=O)(=O)c1ccc(OCC(=O)Nc2ccc(F)cc2F)cc1 (stereo unspecified)
 : -8, 105, -462, 141, -1.0, i, 0.67
> CC1CCN(CCC(=O)Nc2ccc(Br)cc2)CC1
 : -10, ·, 42, 143, -1.5, i, 0.71
> O=C(Cc1cccs1)N1CCN(c2ccc(F)cc2)CC1
 : -5, 97, -13, 115, 0.0, i, 0.89
> CC(=O)Cc1nsc(NC(=O)c2ccc(F)cc2)n1
 : 3, 111, -44, 134, ·, i, 0.9
> CC1C(=O)C(C)C(c2ccc([N+](=O)[O-])cc2)NC1c1ccc([N+](=O)[O-])cc1 (stereo unspecified)
 : 1, 101, ·, ·, ·, i, 0.82
> COc1ccc(CCC(=O)Nc2ccccc2C(F)(F)F)cc1
 : 2, 103, 23, 133, -1.9, ·, ·
> O=C(NCc1ccco1)c1cc(-c2cccnc2)nc2ccc(Cl)cc12
 : -6, 99, -308, 76, -2.1, i, 1
> O=C(CN1C(=O)c2ccccc2S1(=O)=O)Nc1ccc(S(=O)(=O)N2CCCCCC2)cc1
 : -2, 124, -15, 136, -2.7, i, 1.1
> O=C(Oc1ccc2c(-c3ccccc3)cc(=O)oc2c1)C1CCCCC1
 : -4, 103, ·, ·, 1.1, i, 0.93
> Cc1cccc(N(Cc2cc3cc(C)ccc3[nH]c2=O)C(=O)c2cccs2)c1
 : ·, 100, ·, ·, ·, i, 0.84
> CCN(CC)S(=O)(=O)c1ccc(NC(=O)CN(c2ccc(OC)cc2OC)S(C)(=O)=O)cc1
 : -12, 106, -133, 104, -1.8, i, 1
> Cc1ccccc1NS(=O)(=O)c1cccc(-c2nnc(-c3ccccc3)o2)c1
 : -3, 88, ·, ·, -0.2, i, 0.66
> CCc1c(C(=O)c2ccc(Cl)cc2)oc2c(C)c3oc(=O)cc(C)c3cc12
 : -8, 72, 5, 56, -2.0, i, 1
> CC1CNc2c(cccc2S(=O)(=O)N[C@@H](CCCN=C(N)N)C(=O)N2CC[C@@H](C)C[C@@H]2C(=O)O)C1 (stereo partly specified)
 : ·, 110, ·, ·, ·, i, 0.84
> COc1ccccc1N1CCN(C(CNS(=O)(=O)c2cc(F)ccc2F)c2cccnc2)CC1 (stereo unspecified)
 : -4, 100, -71, 111, -1.1, i, 0.91

Next part; the last four above are carried over.
mol | PKD1 inh | RGS16-Gao HTS | Insulin prom inh | Insulin prom inh cell count | GALR2 ag | HSV replic up | HSV replic up primary fold
Cc1ccccc1NS(=O)(=O)c1cccc(-c2nnc(-c3ccccc3)o2)c1 | -3 | 88 | · | · | -0.2 | i | 0.66
CCc1c(C(=O)c2ccc(Cl)cc2)oc2c(C)c3oc(=O)cc(C)c3cc12 | -8 | 72 | 5 | 56 | -2.0 | i | 1
CC1CNc2c(cccc2S(=O)(=O)N[C@@H](CCCN=C(N)N)C(=O)N2CC[C@@H](C)C[C@@H]2C(=O)O)C1 (stereo partly specified) | · | 110 | · | · | · | i | 0.84
COc1ccccc1N1CCN(C(CNS(=O)(=O)c2cc(F)ccc2F)c2cccnc2)CC1 (stereo unspecified) | -4 | 100 | -71 | 111 | -1.1 | i | 0.91
CCC(C)N1CC(C(=O)O)CC1=O (stereo unspecified) | -8 | 101 | 26 | 118 | -1.8 | i | 1
O=C(NNC1CC(=O)N(c2ccc(Cl)cc2)C1=O)c1ccco1 (stereo unspecified) | 3 | 98 | · | · | · | i | 0.79
COc1ccc(Cn2nnnc2C(c2ccc(C)cc2)N2CCN(C3CCCC3)CC2)cc1 (stereo unspecified) | -10 | 50 | -23 | 144 | 1.0 | i | 0.87
O=[N+]([O-])c1ccc2c(c1)C(N1CCOCC1)/C(=C/C1(O)CCCCC1)O2 (stereo unspecified) | -9 | 101 | · | · | · | i | 1.1
C=CCOc1ccc(C(=O)Nc2ccc(OCC)cc2)cc1 | -4 | 105 | · | · | · | i | 0.78
CCCCN(C)Cc1c(C)[nH]c2ccc(OCC)cc2c1=O | -7 | 104 | -29 | 141 | -1.3 | i | 1
C=CCSc1nnc2c(n1)OC(c1ccco1)Nc1ccccc1-2 (stereo unspecified) | -15 | 105 | 17 | 125 | 1.2 | · | ·
CNc1c([N+](=O)[O-])cnn1-c1ccc(F)cc1 | 7 | 99 | · | · | · | i | 1.2
CC(CNc1ccccc1O)C(=O)O (stereo unspecified) | 11 | 69 | 10 | 124 | -0.3 | i | 1
O=C(CC1C(=O)NCCN1Cc1ccc(-c2ccccc2)cc1)NCCOc1cccnc1 (stereo unspecified) | -3 | 101 | · | · | · | i | 0.9
COC(=O)c1c(NC(=O)CCNCc2ccco2)sc2c1CCC2 | · | 105 | · | · | · | i | 0.97
O=C(Cn1nc(-c2ccc3c(c2)OCCO3)ccc1=O)Nc1ccc(N2CCOCC2)cc1 | -4 | 103 | -15 | 122 | -3.0 | i | 1.1
COc1ccc(S(=O)(=O)N2CCN(c3nc4ccccc4nc3-n3nc(C)cc3C)CC2)cc1 | -9 | 101 | 49 | 60 | 2.4 | i | 0.79
N=C(N)SCc1nc2ccccc2c(=O)n1-c1ccccc1 | 15&-10 | 115&68 | 0 | 104 | -0.9&-0.8 | i | 1.1&1.1
Cc1nnc(SCC(=O)NNC(=O)c2ccc(Br)cc2)n1C | -1 | 102 | 29 | 86 | · | i | 1
CCCCC(C(=O)O)C(C)CC(=O)Nc1nncs1 (stereo unspecified) | · | 89 | · | · | · | i | 0.97
C=CCN1C(=O)[C@]2(c3ccccc31)C1CCCC=C1C(C#N)=C(N)C2(C#N)C#N (stereo partly specified) | -8 | 98 | 24 | 73 | -1.5 | · | ·
CCC(=O)N1CCc2cc(S(=O)(=O)CCC(=O)Nc3cccc(C)n3)ccc21 | -2 | 100 | · | · | · | i | 0.97
O=C(O)c1ccc(N2C(=O)CC(Cc3ccccc3)C2=O)cc1 (stereo unspecified) | -3 | 101 | -444 | 21 | -1.9 | i | 0.97
CC(=O)NC1=NN(C(C)=O)C(C)(c2ccccc2)S1 (stereo unspecified) | 8 | 98 | 13 | 102 | -3.1 | i | 0.74

(continued)
mol | PKD1 inh | RGS16-Gao HTS | Insulin prom inh | Insulin prom inh cell count | GALR2 ag | HSV replic up | HSV replic up primary fold
CCCCOCCCNC(=O)c1cccc(OC)c1 | 2 | 46 | 14 | 153 | -0.7 | i | 0.92
Cc1ncsc1CCSc1nc2ccccc2c(=O)n1C | 6 | 107 | 22 | 144 | -2.9 | i | 0.89
Cc1cc(NC(=O)CCN2C(=O)/C(=C\c3ccccc3Cl)SC2=S)no1 | -5 | 96 | -40 | 70 | · | i | 0.99
CC(C)c1ccc(NC(=O)C(c2ccccc2)N2CCN(C=O)CC2)cc1 (stereo unspecified) | -7 | 102 | 0 | 87 | -1.1 | i | 0.86
CCC1CCCCN1CCCNC(=O)C1CCC(Cn2c(=O)[nH]c3ccccc3c2=O)CC1 (stereo unspecified) | -2 | 101 | -4 | 122 | -1.8 | i | 0.89
CC(C)=CCCC1(C)C=Cc2c(ccc3c2[nH]c2cc(O)c(C)cc23)O1 (stereo unspecified) | -9 | 98 | · | · | · | i | 0.58
Cc1ccc(NC(=O)CSc2ncc(-c3ccccc3)n2C(=O)c2ccccc2)cc1 | -9 | 103 | -71 | 123 | -2.8 | i | 0.89
CCOC(=O)c1ccccc1NC(=O)Cn1c(-c2nonc2N)nc2ccccc21 | -3 | 103 | -204 | 11 | 0.8 | i | 0.43
Cc1ccc(C(=O)NCCNc2ccc([N+](=O)[O-])cc2C(F)(F)F)cc1 | -2 | 97 | · | · | -0.7 | i | 0.91
CCOc1ccc(/C=N/NC(=O)c2ccc(Cn3cc([N+](=O)[O-])cn3)o2)cc1 | -5 | 100 | -17 | 66 | -0.8 | i | 1
Cc1nc2c(-c3ccccc3)c(C)nn2c(C)c1CCC(=O)O | -10 | 100 | · | · | 0.6 | i | 0.97
O=c1cc(CSc2nnc(-c3cccs3)n2Cc2ccccc2)nc2sc3ccccc3n12 | -2 | 86 | · | · | -1.8 | i | 1
Cc1ccccc1-n1c(=O)cc(N2CCC3(CC2)OCCO3)[nH]c1=O | 4 | 96 | 0 | 122 | -0.4 | i | 0.99
CCCCC(CC)CNC(=O)/C=C/c1ccc(F)cc1 (stereo unspecified) | -2 | 103 | -34 | 87 | -0.4 | i | 0.84
CCN(CC)S(=O)(=O)c1ccc(C)c(NC(=S)NNC(=O)C2CC2)c1 | 2 | 101 | -22 | 138 | -0.1 | i | 1
COC(=O)[C@H](C)NC(=O)Nc1cccc(C)c1 | 1 | 103 | 0 | 73 | -2.4 | i | 0.92
CCOC(=O)c1c(NC(=O)c2ccc(N3CCOCC3)c([N+](=O)[O-])c2)sc(C)c1C | -19 | 100 | 13 | 114 | -3.3 | i | 1
O=C(NCC(c1cccs1)N1CCOCC1)c1cccc([N+](=O)[O-])c1 (stereo unspecified) | -9 | 100 | · | · | -1.2 | i | 0.84
Cc1cc(OC(=O)c2cccs2)ccc1C(C)C | 4 | 105 | -18 | 114 | 0.0 | i | 0.92
CCOC(=O)c1cc(-c2ccccc2)sc1NC(=O)c1ccc(OC)c(OC)c1 | 3 | 73 | · | · | -0.6 | i | 0.95
CCOc1ccc(S(=O)(=O)NCC2CCCO2)c2cccnc12 (stereo unspecified) | 7 | 109 | -375 | 79 | 0.6 | i | 0.92
N#CCC(=O)N/N=C/c1cc(-c2ccccc2)n(-c2ccc(Cl)cc2)c1-c1ccccc1 | 0 | 104 | 0 | 112 | · | i | 1
NCc1oc(-c2ccccc2)cc1C(=O)O | 0 | 127 | 64 | 42 | · | i | 0.91
